High-throughput results as filed in PubChem.
VDR inh – blocks the human vitamin D receptor; Potency, µM, for the others: max response, negative = inhibition, hits mostly inhibitors; VDR-SRC2-3 peptide fluorescence polarization, 2 h; AID 504847; 0.93% of 400,000 active; P11473; active = well fitted inhibition curve with a large enough effect; inconclusive = small, poorly fitted or top-dose-only effect, or another doubt; inactive = no such curve, though single readings can be large or run the other way; also: series mostly up to about 120 µM
Target sequence (P11473 whole entry, looked up): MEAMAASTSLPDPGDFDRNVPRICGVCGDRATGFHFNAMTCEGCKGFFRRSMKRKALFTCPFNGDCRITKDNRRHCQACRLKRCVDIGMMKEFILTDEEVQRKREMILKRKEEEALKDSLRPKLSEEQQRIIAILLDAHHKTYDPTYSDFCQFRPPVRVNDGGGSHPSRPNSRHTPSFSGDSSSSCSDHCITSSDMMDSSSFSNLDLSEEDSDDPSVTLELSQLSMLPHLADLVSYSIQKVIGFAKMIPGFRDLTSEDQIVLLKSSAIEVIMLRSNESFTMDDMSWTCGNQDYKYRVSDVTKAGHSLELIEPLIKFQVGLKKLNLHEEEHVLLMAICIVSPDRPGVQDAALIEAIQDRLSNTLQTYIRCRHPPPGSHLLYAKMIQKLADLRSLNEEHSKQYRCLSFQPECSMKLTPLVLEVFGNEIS
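Measured by FP: displacement of SRC2-3 coactivator peptide from VDR by library compounds, following a two-hour ambient incubation.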
* marks the source's active call; other numbers are inactive results; u = inconclusive; & = joins results of further samples; [ ] = another dose, or the depositor's remark. % is scaled to controls: 0 for no effect and ±100 for the full control effect; potency is read from the fitted curve at half-maximal effect. Not all compounds are listed; count on the stated rates, not on these rows.

mol,VDR inh
C/C(=N\NC(=O)c1ccc2ccccc2c1)c1cccnc1,-12%
CCOc1cc(N2CCOCC2)c(OCC)cc1NC(=O)COC(=O)c1cccc2ccccc12,-11%
CCS(=O)(=O)N1CCC(N2CCC(C)CC2)CC1,-7%
Cc1[nH]c2ccccc2c1C(=O)C(C)Sc1nnc(C2CC2)o1 (centres undefined),-4%
COc1ccc(CCNC(=O)c2c(-c3ccccc3Cl)noc2C)cc1,-11%
c1ccc(CSc2nnc3ccc(-c4ccco4)nn23)nc1,17%
NC(=O)c1ccccc1NC(=O)/C=C/c1c(Cl)cccc1Cl,8%
CCCN1CCN(C(=O)Cn2cccc2C(=O)c2ccccc2)CC1,15%
COC(=O)C(Cc1ccc(O)cc1)NC(=O)c1ccccc1OC (centres undefined),-7%
CCCS(=O)(=O)N1CC(=O)N(c2cccc(Cl)c2)C(C)(C(=O)NC2CCCCC2)C1 (centres undefined),11%
Cc1ccc(NC(=O)CN(C)C(C)C(=O)Nc2ccc(S(=O)(=O)N3CCCC3)cc2)cc1 (centres undefined),7%
CC(=O)N1CCCc2cc(S(=O)(=O)N3CCCC(C(=O)Nc4cc(Cl)ccc4C)C3)ccc21 (centres undefined),7%
COc1ccc(OCC(=O)Nc2cccc3ncccc23)cc1,1%
O=[N+]1C2=C(CCCC2)N([O-])C12CCCC2,1%
Cc1ccccc1Nc1oc(-c2ccccc2)nc1-c1ccccc1F,2%
CCC(Sc1nnnn1C)C(=O)Nc1ccc(C(C)=O)cc1 (centres undefined),18%
CC1=C(c2ccc(C)c(C)c2)S(=O)(=O)N(Cc2ccc(C(=O)NC(C)c3ccccc3)cc2)C1=O (centres undefined),-8%
Cc1cccc(C)c1NC(=O)C(c1ccc([N+](=O)[O-])cc1)N(C)C(=O)c1ccccn1 (centres undefined),-26%
Cc1ccc(-c2csc(N3CCC[C@@H]3C(=O)NCCn3c(-c4ccncc4)nc4ccccc43)n2)cc1,-14%
Cc1cc(C)c2nc(N3CCC(C(=O)NCCCN4CCCCC4)CC3)sc2c1,12%
C/C=C/c1ccc(OCCCCn2cncn2)c(OC)c1,-10%
CC1=C(C)CC2(SC1)C(=O)N(c1ccccc1)N=C2N (centres undefined),4%
Cc1ccc(-c2cn3cccnc3n2)cc1NC(=O)c1c(-c2ccccc2Cl)noc1C,8%
CC(C)c1ccc(NC(=O)CCS(=O)(=O)c2cccc3nonc23)cc1,4%&-6%
Cc1ccccc1S(=O)(=O)Cc1ccc(C(=O)NCCN(Cc2ccccc2)C(C)C)o1,8%

Six compounds already listed, sorted by number of heavy atoms, descending:
mol,VDR inh
CCOc1cc(N2CCOCC2)c(OCC)cc1NC(=O)COC(=O)c1cccc2ccccc12,-11%
CC(=O)N1CCCc2cc(S(=O)(=O)N3CCCC(C(=O)Nc4cc(Cl)ccc4C)C3)ccc21 (centres undefined),7%
Cc1ccccc1Nc1oc(-c2ccccc2)nc1-c1ccccc1F,2%
CCC(Sc1nnnn1C)C(=O)Nc1ccc(C(C)=O)cc1 (centres undefined),18%
C/C=C/c1ccc(OCCCCn2cncn2)c(OC)c1,-10%
CC1=C(C)CC2(SC1)C(=O)N(c1ccccc1)N=C2N (centres undefined),4%

Next section:
mol,VDR inh
Cc1ccc(CS(=O)(=O)CCC(=O)O)cc1,-11%
NC(=S)N/N=C/c1ccc(C(F)(F)F)cc1,-15%
CN(C)CC[n+]1ccc(C(=O)c2ccccc2)cc1,1%
COc1ccc(NCc2cc(=O)[nH]c3ccccc23)cc1,5%
CCOC(=O)C1CCN(CC(O)COc2ccc(C(C)(C)C)cc2)CC1 (centres undefined),-6%
CC(C)C(=O)N1CCN(c2cc(N3CCN(C)CC3)c(F)cc2[N+](=O)[O-])CC1,-7%
Cn1c(SCC(=O)N2CCCC2)nnc1-c1ccc(S(=O)(=O)N2CCCC2)cc1,-3%
CCCCOC(=O)C1C2C=C[C@]3(CN(CCCOC)C(=O)[C@H]13)O2 (some centres undefined),-11%
O=S(=O)(c1ccc(Oc2ccc(Br)cc2)cc1)N1CCOCC1,10%
CC(=O)Nc1ccc(C(=O)OCC(=O)NCCC2=CCCCC2)cc1,-3%
Cc1ccc(NCc2ccccc2O)cc1,-6%
NS(=O)(=O)c1ccc(NC(=O)COC(=O)C2(c3ccc(F)cc3)CCCC2)cc1,-1%
O=c1[nH]c2ccc(N=Cc3c(O)ccc4cc(Br)ccc34)cc2[nH]1,u
CCOc1ccc(NC(=O)Nc2cccs2)cc1,0%
COc1ccc(C(=O)NCCc2cnc[nH]2)cc1OC,25%
COc1ccc(S(=O)(=O)N2CCOC2CNC(=O)C(=O)NCCN2CCOCC2)cc1C (centres undefined),-13%
CC1CCCC(C)N1CC(O)Cn1c2ccccc2c2ccccc21 (centres undefined),-13%
O=C(NNC(=O)c1csc(-c2cnccc2C(F)(F)F)n1)c1ccc(C(F)(F)F)cc1,-14%
O=S(=O)(c1ccccc1)N1CCC2(CCCN(c3ncccn3)C2)CC1,-8%
O=C(Cc1ccc2c(c1)OCCO2)N1CCN(S(=O)(=O)c2cccs2)CC1,13%
N#C/C(=C(/O)CCl)c1nc2ccccc2[nH]1,-23%
Cc1ccc(S(=O)(=O)NC(C)c2ccccc2)cc1[N+](=O)[O-] (centres undefined),-7%
NC(=O)CSc1nnc(NC(=O)c2ccc(S(=O)(=O)N3CCCCC3)cc2)s1,-3%
O=C(O)c1cnc(-c2ccccc2)nc1C(F)(F)F,-3%
COc1cccc(CNc2nc3ccc(NC(C)=O)cc3s2)c1,2%

Continued.
mol,VDR inh
COc1cccc2c1C(=O)c1c(O)c3c(c(O)c1C2=O)C[C@@](O)(C(=O)CO)C[C@@H]3OC1C[C@@H](N)[C@H](O)[C@H](C)O1 (some centres undefined),1%
Oc1ccc(-c2nccc(-c3ccc(Br)cc3)n2)cc1,12%
Cc1nc2ccccc2c(=O)n1NC(=O)c1cncc(Br)c1,2%
O=C(CN1C(=O)CCC1=O)Nc1ccc(Cc2ccc(NC(=O)CN3C(=O)CCC3=O)cc2)cc1,-14%
CCOC(=O)N1CCN(C(=O)CCSc2ccc(C)cc2)CC1,-19%
O=C(COC(=O)c1ccccc1Br)Nc1ccccc1F,-6%
CCCc1cc(=O)oc2cc(OCC(=O)NCCCN3CCOCC3)ccc12,11%
Cc1ccc(C(=O)NCc2ccccn2)o1,2%
CC(C)Oc1ccc(/C=C/C(=O)NCC2COc3ccccc3O2)cc1 (centres undefined),-7%
CCCn1c2ccccc2c2cnn(CC(=O)N3CCN(c4ccccc4)CC3)c(=O)c21,4%
COc1ccc(CCN(C)C(=O)CCCN2C(=O)c3cccc4cccc(c34)C2=O)cc1OC,2%
CC1Sc2ccc(S(=O)(=O)CCC(=O)NCc3ccccc3)cc2NC1=O (centres undefined),-14%
CCOc1ccc(-n2c(C)cc(/C=N/N(C)C)c2C)cc1,-17%
CCC(=O)N1CCN(c2ccc(NC(=S)NC(=O)c3cccc([N+](=O)[O-])c3)cc2)CC1,1%
Cc1ccc(NC(=S)NCCc2ccc(S(N)(=O)=O)cc2)cc1C,4%
CC1CCCCN1C(=O)CSc1nc(-c2ccccc2)cc(=O)[nH]1 (centres undefined),1%
CCN(CC)S(=O)(=O)c1ccc(S(=O)(=O)N2CCN(C(=O)c3ccco3)CC2)cc1,2%
Cc1cccc(C)c1NC(=O)CSc1nnc(-c2cccnc2)o1,-11%
Cn1c(SCc2ccccn2)nnc1-c1cnccn1,2%
CCCCCC(O)c1ccc([C@H]2CCC(=O)[C@@H]2CCCCCCC(=O)O)cc1 (some centres undefined),u
O=C(CCNS(=O)(=O)c1ccc(Cl)cc1)NCc1cccnc1,u
CCOc1ccc(CC2S/C(=N/N=C/c3ccco3)NC2=O)cc1 (centres undefined),15%
CCCCn1c(C)cc(/C=C(\C#N)C(=O)O)c1C,-11%
CCc1nn(C(C)C(=O)NCCc2ccc(OC)c(OC)c2)c(=O)c2cc3occc3n12 (centres undefined),-19%
CC(C)COc1cccc(C(=O)NC(=S)Nc2cccc(NC(=O)c3ccccc3Cl)c2)c1,3%

(further entries)
mol,VDR inh
CC1Cc2cc(S(=O)(=O)N3CCN(c4ccccc4F)CC3)ccc2N1C(=O)C1CC1 (centres undefined),-7%
O=C(c1cc(S(=O)(=O)N2CCOCC2)c(Cl)cc1Cl)N1CCCCC1,-4%
COc1cc(N=Nc2cccc(S(N)(=O)=O)c2)c2ccccc2c1N,-2%
Cc1cc(C)nc(N2CCC(C(=O)NCc3cccs3)CC2)n1,-5%
O=S(=O)(c1ccc(-c2cc(C(F)(F)F)on2)s1)N1CCN(c2cccc(Cl)c2)CC1,5%
COc1cc(C(=O)NCC(=O)NNC(=O)CN(C)S(=O)(=O)c2ccc(Cl)cc2)cc(OC)c1OC,1%
CCOc1ccc(C(=O)CCC(=O)Nc2ccncc2)cc1,-5%
CSc1nnc(Cc2cc(=O)[nH]c(=O)[nH]2)n1-c1cc(C)ccc1C,9%
CC(=O)Nc1cc(S(=O)(=O)Nc2cccc(C)c2)c(C)cc1C,8%
O=C(Nc1cc(C(F)(F)F)cc(C(F)(F)F)c1)Nc1cnn(-c2ccc([N+](=O)[O-])cc2)c1C(F)(F)F,-5%
O=C(Nc1ccc(Cc2ccc(NC(=O)C3CC3)cc2)cc1)C1CC1,-6%
CSc1n[nH]c(/N=C/c2oc(O)c3ccccc23)n1,7%
CC(=O)N1CCc2c(sc3c2c(=O)n(-c2ccccc2C)c(=O)n3CC(=O)c2ccccc2)C1,-7%
CN(C)c1ccc(/C=N/NC(=O)CCc2nc3ccccc3[nH]2)cc1,-5%
COC(=O)c1ccc(CN(C(=O)N2CCN(C)CC2)S(=O)(=O)c2ccc(C)cc2)cc1,-21%
O=C(COc1ccc(Cl)cc1Cl)N1CCCC1,47%[activator]
Cc1c(N)ccc(-n2nc3ccccc3n2)c1C,-17%
Cc1ccc(N2C(=O)CS(=O)(=O)CC2=O)cc1,5%
CC(C)c1ccc(NC(=O)C2CCN(S(=O)(=O)c3ccc(Br)s3)CC2)cc1,-5%
Cc1ccccc1N(C(=O)CNC(=O)c1ccco1)C(C(=O)NC1CCCCC1)c1ccncc1 (centres undefined),7%
COc1ccccc1NS(=O)(=O)c1ccc(NC(=O)N2CCCCC2)cc1,-6%
CC1CC1c1ccc(/C=C(\C#N)C(=O)Nc2ccccc2Cl)o1 (centres undefined),-14%
COC(=O)c1ccc(NC(=O)CN2CCN(c3cccc(Cl)c3)CC2)cc1,22%
CCCCOc1ccc(NC(=O)C(=O)NCCCn2ccnc2)cc1,-8%
CCOC(=O)C1(c2nc(N)cs2)COC(=O)C1 (centres undefined),-14%

Another view of part of the listing above:
> COc1cc(C(=O)NCC(=O)NNC(=O)CN(C)S(=O)(=O)c2ccc(Cl)cc2)cc(OC)c1OC
- VDR inh = 1%

> CCOc1ccc(C(=O)CCC(=O)Nc2ccncc2)cc1
- VDR inh = -5%

> CSc1nnc(Cc2cc(=O)[nH]c(=O)[nH]2)n1-c1cc(C)ccc1C
- VDR inh = 9%

> CC(=O)Nc1cc(S(=O)(=O)Nc2cccc(C)c2)c(C)cc1C
- VDR inh = 8%

(cont.)
mol,VDR inh
COc1ccc(C(=O)Nc2nc(-c3ccccn3)cs2)cc1S(=O)(=O)N1CCOCC1,u
COc1ccccc1CN1CCNC(=O)C1CC(=O)N(C)Cc1nc(C)cs1 (centres undefined),-18%
CC(NC(=O)/C=C/c1ccco1)c1nc2ccccc2n1Cc1c(Cl)cccc1Cl (centres undefined),-24%
Nc1nc(Nc2cccc(Cl)c2)nc(NCc2ccco2)c1[N+](=O)[O-],-17%
CC(=O)OCC(=O)[C@]1(O)C(C)CC2C3CCC4=CC(=O)C=C[C@@]4(C)[C@]3(F)C(O)C[C@@]21C (some centres undefined),-2%
Cc1ccc(S(=O)(=O)N(C)C)cc1NC(=O)CSc1nncs1,-10%
O=C(N/C(=C\c1cccnc1)C(=O)N1CCCCC1)c1cccc(Br)c1,14%
CCC(Cc1ccccc1)NC(=O)C1CCN(S(=O)(=O)c2c(C)noc2C)CC1 (centres undefined),-7%
CCOC(=O)CN(C(=O)c1ccccc1)c1ccccc1C,-11%
Cc1[nH]c2ccccc2c1SCCNC(=O)c1ccc(F)cc1,6%
CCOC(=O)CNC(=O)CSc1nnc(-c2ccccc2)n1Cc1ccco1,11%
CCCc1nnc(NC(=O)c2ccc([N+](=O)[O-])cc2)s1,-11%
O=C(O)c1ccc2c(=O)n(-c3ccc(F)cc3)c(=S)[nH]c2c1,-16%
Cc1cc(C(=O)OCC(=O)N2CC(C)OC(C)C2)ccc1[N+](=O)[O-] (centres undefined),-10%
Cc1cc(C)nc(NC(=O)c2ccccc2O)n1,1%
C=CCC(CC=C)(CNC(=O)C(=O)Nc1cccc(C(F)(F)F)c1)c1ccccc1,6%
Clc1ccc(-c2nnnn2-c2ccc(Cl)cc2)cc1,8%
c1ccc2c(Cn3nnc4ccccc43)cccc2c1,22%
Cc1cccc(N2CCN(S(=O)(=O)c3ccc4c(c3)C(C)(C)C(=O)N4C)CC2)c1C,7%
Cc1cccc(C)c1NC(=O)C1CCCN1S(=O)(=O)c1ccc2c(c1)n(C)c(=O)c(=O)n2C (centres undefined),-8%
CC1Cc2ccccc2N1C(=O)CSc1nc2c(c(=O)n(C)c(=O)n2C)n1Cc1ccccc1 (centres undefined),-7%
Cc1cc(C)n(C(C)CNC(=O)c2ccc3c(c2)OCO3)n1 (centres undefined),3%
Cc1cc(C)cc(NC(=O)CCC(=O)N2Cc3ccccc3Oc3ncccc32)c1,-3%
